Bioassay records: PubChem, Broad Institute
Ecoli rRNA inh: reduced GFP signal of wild-type E. coli, primary screen, bacterial rRNA inhibitor project, GFP/RFP fluorescence, OD600, single point; E. coli WT GFP vs humanized-ribosome RFP mutants, 24 h; stronger effect = lower value; DMSO median 0, no signal -100; GFP signal change (wild-type ribosome), % (test concentration not listed); 1.6% of 350,000 active;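 active = significant combined selectivity score with lowered wild-type GFP, culture density cut under 30%, mutant RFP and density less affected; inactive = any of these conditions unmet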; note: one replicate is shown; some compounds called inactive have numbers as strong as hits
Ecoli rRNA inh OD600: further read-out of Ecoli rRNA inh, marked with its call; OD600 change, %; measured here: OD600 growth;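 optical density of the mix in the first replicate; 0 = DMSO median and -100 = no signal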
Ecoli rRNA inh RFP: second read-out of Ecoli rRNA inh, no call of its own (marks repeat the call); RFP signal change, %; measured here: RFP humanized mutant strains;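 first replicate; 0 = DMSO median and -100 = no signal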
Numbers without * were called inactive; & = joins results of further samples. This is a subset, so the mix of outcomes need not match the whole.

item | structure | Ecoli rRNA inh | Ecoli rRNA inh OD600 | Ecoli rRNA inh RFP
1 | CS(=O)(=O)N1[C@@H]2Cn3c(ccc(C4=CCCCC4)c3=O)[C@H]1[C@@H](C(=O)N1CCCCC1)[C@@H]2CO | 0.5 | 16.4 | -7.5
2 | C[C@@H]1CN([C@H](C)CO)C(=O)c2cc(C#C[C@@H](C)O)cnc2O[C@H]1CN(C)CC1CCCCC1 | 5.6 | 3.6 | -0.9
3 | CN(C)C(=O)[C@@H]1[C@@H](CO)[C@@H]2Cn3c(ccc(C4=CCCC4)c3=O)[C@@H]2N1C(=O)c1ccccc1F | 6.4 | -0.7 | 2.6
4 | CC=Cc1ccc2n(c1=O)C[C@H]1[C@H](CO)[C@@H](C(=O)NCc3ccncn3)N(C(=O)NC3CCCC3)[C@@H]21 (mixture of isomers) | 2.2 | 1.4 | -2.0
5 | O=C(C[C@H]1C=C[C@@H](NC(=O)C2CCOCC2)[C@H](CO)O1)NCC1CC1 | 2.7 | 1.2 | -3.1
6 | COc1ccc(NC(=O)Nc2ccc3c(c2)CC(=O)N([C@H](C)CO)C[C@H](C)[C@@H](CN(C)C(=O)Nc2ccc4c(c2)OCO4)O3)cc1 | -1.5 | -0.9 | -5.1
7 | C[C@@H](O)C#Cc1ccc([C@@H]2[C@H](CO)N3CCCCN(C(=O)c4ccc(F)cc4)C[C@@H]23)cc1 | -0.2 | 1.7 | -0.2
8 | COc1ccc(-c2cnc3c(c2)C(=O)N([C@H](C)CO)C[C@@H](C)[C@H](CN(C)S(=O)(=O)c2ccc(OC)cc2)O3)cc1 | -7.2 | -6.3 | 7.1
9 | COC(=O)C[C@H]1C[C@H]2c3cc(NC(=O)Nc4ccc(C(F)(F)F)cc4)ccc3O[C@H]2[C@@H](CO)O1 | -19.2&-4.3 | -13.6&5.9 | -2.1&0.1
10 | Cc1cc(C(=O)Nc2cccc3c2O[C@@H](CN(C)C(=O)Nc2cccc4ccccc24)[C@H](C)CN([C@@H](C)CO)C3=O)n(C)n1 | -0.7 | -4.5 | 2.0
11 | CC=Cc1ccc2n(c1=O)C[C@@H]1[C@@H](CO)[C@H](C(=O)NCCC)[C@H]2N1C(=O)c1ccccc1F (mixture of isomers) | -0.5 | 3.0 | -3.2
12 | C[C@@H]1CN([C@@H](C)CO)C(=O)c2cccc(NC(=O)CCCCCC(=O)Nc3ccccc3N)c2O[C@H]1CN(C)CC1CC1 | -6.0 | -4.5 | 0.1
13 | C[C@H]1CN([C@@H](C)CO)C(=O)c2cc(C#CCN(C)C)cnc2O[C@@H]1CN(C)C | 7.5 | 10.6 | 0.6
14 | C[C@@H]1CN([C@H](C)CO)C(=O)c2cc(NS(=O)(=O)c3cn(C)cn3)ccc2O[C@@H](C)CCCCO[C@H]1CN(C)S(=O)(=O)c1ccc(Cl)cc1 | -10.6 | -3.0 | 4.0
15 | CO[C@@H]1CN(C)C(=O)c2cc(NC(=O)C3CC3)ccc2OC[C@H](C)N(CC2CC2)C[C@H]1C | -1.0 | 3.0 | 0.9
16 | Cc1[nH]nc2c1C(c1ccccc1)N(c1ccccc1)C2=O (stereo unspecified) | -6.8 | 4.6 | 3.4
17 | Cc1noc(C)c1NC(=O)N(C)C[C@H]1OCCCC[C@@H](C)Oc2ccc(NS(C)(=O)=O)cc2C(=O)N([C@@H](C)CO)C[C@H]1C | 1.2 | 12.2 | -1.9
18 | C[C@H]1CN([C@@H](C)CO)C(=O)Cc2cc(NS(=O)(=O)c3cccs3)ccc2O[C@H]1CN(C)C(=O)Nc1cccc2ccccc12 | -2.6 | -2.2 | -1.0
19 | C[C@H]1CN([C@@H](C)CO)S(=O)(=O)c2ccc(/C=C/c3ccccc3)cc2O[C@@H]1CN(C)C(=O)C1CC1 | -16.8 | -43.9 | 9.7
20 | O=C(NCCN1CCC(n2c(=O)[nH]c3ccccc32)CC1)c1cccc2c1-c1ccccc1C2=O | -7.0 | -12.2 | -0.5
21 | CO[C@H]1CN(C)C(=O)c2cc(NS(=O)(=O)c3cn(C)cn3)ccc2OC[C@H](C)NC[C@@H]1C | -2.1 | 5.0 | -1.2
22 | COc1ccc(Cc2nc3ccc(C(=O)NCCc4ncccc4C)cc3o2)cc1OC | -8.8 | -11.0 | -3.6
23 | Cc1ccc(S(=O)(=O)N(C)C[C@H]2OCCCC[C@@H](C)Oc3ccc(NC(=O)Nc4ccccc4)cc3C(=O)N([C@@H](C)CO)C[C@H]2C)cc1 | 5.3 | 10.2 | 0.3
24 | C/C=C/c1cccc(-c2nc(C(=O)NCc3cccc(OC)c3)cc3c2[C@@H](CCO)N([S@](=O)C(C)(C)C)C3)c1 | -6.5 | -6.6 | 24.0
25 | O=C(CCN1CCCCC1)NCC[C@H]1CC[C@H](NC(=O)C2CCCC2)[C@@H](CO)O1 | 1.8 | 7.4 | -1.2
26 | C/C=C/c1ccc2c(c1)O[C@H](CN(C)Cc1cccnc1)[C@@H](C)CN([C@@H](C)CO)S2(=O)=O | -18.6 | -28.4 | -2.2
27 | C[C@@H]1CN([C@H](C)CO)C(=O)Cc2cc(NC(=O)Nc3cccc4ccccc34)ccc2O[C@H]1CN(C)C(=O)Nc1ccc2c(c1)OCO2 | -5.2 | 0.5 | -0.4
28 | CO[C@@H](CN(C)C(=O)Nc1ccc(C(F)(F)F)cc1)[C@H](C)CN(Cc1ccccc1Cl)[C@@H](C)CO | -18.3 | -61.1 | 21.8
29 | O=C(NC[C@@H]1[C@H](c2ccccc2)[C@H](CO)N1C(=O)Cc1cccnc1)C1CC1 | 3.4 | 1.1 | -0.4
30 | COc1ccc(NC(=O)CCCOc2ccc(C(C)=O)cc2)cc1S(=O)(=O)N1CCCCC1 | -2.3 | -12.4 | 3.4
31 | CO[C@H](CN(C)S(=O)(=O)c1ccc(F)cc1)[C@@H](C)CN([C@H](C)CO)S(=O)(=O)c1cccc(Cl)c1 | -0.2 | -16.4 | -5.5
32 | COc1ccc2c3c(n(C)c2c1)[C@@H](CO)N(C)CC31CN(C(=O)Nc2c(C)noc2C)C1 | 2.7 | 16.4 | -1.1
33 | O=C(C[C@H]1C=C[C@H](NC(=O)Nc2ccc(C(F)(F)F)cc2)[C@H](CO)O1)NCc1cccc(F)c1 | 2.2 | 15.1 | 1.5
34 | C[C@@H]1CN([C@H](C)CO)S(=O)(=O)c2ccc(-c3cccc(C#N)c3)cc2O[C@@H]1CN(C)C(=O)c1ccc(F)cc1 | -13.9 | -22.9 | -0.2
35 | C[C@@H]1CCCCO[C@@H](CN(C)Cc2ccc(Cl)c(Cl)c2)[C@@H](C)CN([C@H](C)CO)C(=O)c2cc(NS(=O)(=O)c3ccccc3)ccc2O1 | 3.1 | 1.1 | -1.6
36 | C[C@H]1CN([C@@H](C)CO)C(=O)c2cc(C#CC3(O)CCCC3)cnc2O[C@H]1CN(C)Cc1ccccc1 | 1.1 | 5.5 | -2.2
37 | COc1cccc(N2CCN(C(=O)C3CCN(C(=O)Nc4ccccc4)CC3)CC2)c1 | 5.0 | 12.3 | -2.5
38 | COc1ccc(-c2nc3c(C)cc(Br)cn3c2CC2CCCCC2)cc1OC | -9.3 | -18.1 | 27.0
39 | Cc1ccc(S(=O)(=O)N[C@H]2CC[C@@H](CCn3cc(-c4cccnc4)nn3)O[C@@H]2CO)cc1 | 0.4 | 5.2 | -1.8
40 | CN1CCN(C(=O)C[C@H]2CC[C@@H]3[C@H](COC[C@H](O)CN3Cc3ccc4c(c3)OCO4)O2)CC1 | -0.8 | -0.6 | 1.2
41 | COc1ccc(NC(=O)N(C)C[C@@H]2Oc3ccc(NC(=O)Nc4cccc5ccccc45)cc3C(=O)N([C@H](C)CO)C[C@@H]2C)cc1 | -3.7 | -1.2 | 0.7
42 | C[C@@H](NC(=O)C[C@@H]1C[C@@H]2c3cc(NC(=O)CC4CC4)ccc3O[C@@H]2[C@@H](CO)O1)c1ccccc1 | 2.7 | -3.0 | -1.4
43 | C[C@@H]1CN([C@@H](C)CO)C(=O)c2cc(NC(=O)c3ccncc3)ccc2O[C@@H]1CN(C)C(=O)Nc1ccc(C(F)(F)F)cc1 | -5.3 | -12.2 | -2.0
44 | COc1cccc(-c2cnc(C(O)c3ccc(CN4CCCC4)cc3)[nH]2)c1 (stereo unspecified) | 12.7 | 15.2 | 3.0
45 | C[C@@H]1CN([C@H](C)CO)C(=O)c2cc(NC(=O)C3CCCCC3)ccc2O[C@@H]1CN(C)Cc1ccc(-c2ccccc2)cc1 | -3.0 | 1.4 | 1.4
46 | CCCNC(=O)N(C)C[C@H]1Oc2ncc(C#CC3CCCCC3)cc2C(=O)N([C@@H](C)CO)C[C@@H]1C | 3.6 | 1.4 | -1.8
47 | O=C(NC[C@H]1[C@H](c2ccccc2)[C@@H](CO)N1C(=O)Cc1cccnc1)C1CC1 | 2.0 | 2.2 | -3.8
48 | CCCNC(=O)[C@@H]1[C@@H](CO)[C@@H]2Cn3c(ccc(-c4cncnc4)c3=O)[C@@H]2N1C(=O)c1ccccc1F | 1.7 | -0.1 | 0.2
49 | CCC(=O)N(C)C[C@H]1Oc2ncc(C#CC(C)C)cc2C(=O)N([C@H](C)CO)C[C@@H]1C | 1.3 | 2.1 | -4.6
50 | CNC[C@@H]1Oc2cc(Br)ccc2S(=O)(=O)N([C@@H](C)CO)C[C@@H]1C | 11.1&2.5 | 15.6&15.1 | -2.5&-2.6
51 | CCC(=O)N1[C@@H](CO)[C@@H](c2ccc(C3=CCCC3)cc2)C12CN(C(=O)COC)C2 | 5.4 | 19.6 | 2.6
52 | COc1ccc(S(=O)(=O)Nc2ccc3c(c2)C(=O)N([C@@H](C)CO)C[C@H](C)[C@@H](CN(C)S(=O)(=O)c2ccc(C)cc2)O3)cc1 | -1.6 | -3.3 | 3.0
53 | C[C@H](CO)N1C[C@H](C)[C@@H](CN(C)C(=O)NC2CCCC2)Oc2cc(C#Cc3ccc(F)cc3)ccc2S1(=O)=O | -4.6 | -2.0 | 3.4
54 | CCCNC(=O)N(C)C[C@H]1Oc2ncc(C#Cc3ccccc3F)cc2C(=O)N([C@H](C)CO)C[C@H]1C | 0.7 | -0.3 | -3.8
55 | O=C(c1cccc(F)c1)N1CCCCN2[C@H](C1)[C@H](c1ccc(-c3ccccc3)cc1)[C@@H]2CO | -37.1 | -68.4 | -1.4
56 | COc1ccc(CN(C)C[C@H]2Oc3ccc(NC(=O)C4CCCCC4)cc3C(=O)N([C@@H](C)CO)C[C@H]2C)cc1 | 2.1 | 8.1 | -0.6
57 | O=C(N[C@H](C(=O)N1CCC[C@H]1C(=O)NCCc1ccccc1Cl)C1CCCCC1)c1ccc(Cl)c(Cl)c1 | 25.6 | 16.8 | 9.1
58 | C[C@H]1CN([C@@H](C)CO)C(=O)c2cccc(NC(=O)C3CCCCC3)c2O[C@H]1CN(C)S(C)(=O)=O | 4.1 | 6.1 | 1.8
59 | C[C@H](CO)N1C[C@H](C)[C@@H](CN(C)C(=O)Cc2ccccc2)OCc2ccccc2-c2c(n(C)c3ccccc23)C1=O | -3.3 | -12.8 | -0.4
60 | CCCNC(=O)N1CC2(CCN(C(=O)COC)CC2)c2c(n(C)c3cc(OC)ccc23)[C@@H]1CO | -0.3 | 12.2 | -4.4

Next entries follow.
item | structure | Ecoli rRNA inh | Ecoli rRNA inh OD600 | Ecoli rRNA inh RFP
61 | COc1ccc(Cn2cc(CN(C)C3CN(Cc4cn(Cc5ccc(OC)cc5)nn4)S(=O)(=O)C3)nn2)cc1 (stereo unspecified) | 1.3 | -6.2 | 0.4
62 | O=C(C1CC1)N1CC(=O)N2[C@H](CO)[C@@H](c3ccc(C#CC4CCCC4)cc3)[C@H]2C1 | 9.3 | -5.7 | 1.6
63 | N#Cc1ccc(-c2ccc([C@@H]3[C@@H]4CN(S(=O)(=O)c5ccc(-c6ccccc6)cc5)C[C@H]3N4)cc2)cc1 | 5.9 | 9.8 | -3.7
64 | C[C@@H]1CCCCO[C@@H](CN(C)C)[C@H](C)CN([C@@H](C)CO)C(=O)c2cc(NC(=O)NC3CCCCC3)ccc2O1 | 2.6 | 3.7 | -0.4
65 | COc1ccc(CN(C)C[C@H]2Oc3ccc(NS(=O)(=O)c4cn(C)cn4)cc3C(=O)N([C@@H](C)CO)C[C@H]2C)cc1 | 5.8 | 7.4 | 0.8
66 | CC(C)NC(=O)Nc1ccc2c(c1)C(=O)N([C@@H](C)CO)C[C@H](C)[C@@H](CN(C)Cc1ccc(C(F)(F)F)cc1)OCCCC[C@H](C)O2 | 0.5 | -5.7 | -0.3
67 | CCCC#Cc1ccc([C@@H]2[C@H]3CN(C(=O)NC4CCCC4)CCCCN3[C@H]2CO)cc1 | -58.4 | -75.8 | -15.2
68 | C[C@@H]1CCCCO[C@@H](CN(C)C(=O)Nc2ccccc2)[C@H](C)CN([C@@H](C)CO)C(=O)c2cc(NC(=O)c3ccncc3)ccc2O1 | 3.1 | 1.4 | 4.2
69 | CC(C)NC(=O)Nc1ccc2c(c1)C(=O)N([C@@H](C)CO)C[C@@H](C)[C@H](CN(C)CC1CCCCC1)OCCCC[C@H](C)O2 | 4.1 | 6.2 | -1.3

Gathered by group: the compounds so far containing two or more sulfur atoms (4)
item | structure | Ecoli rRNA inh | Ecoli rRNA inh OD600 | Ecoli rRNA inh RFP
14 | C[C@@H]1CN([C@H](C)CO)C(=O)c2cc(NS(=O)(=O)c3cn(C)cn3)ccc2O[C@@H](C)CCCCO[C@H]1CN(C)S(=O)(=O)c1ccc(Cl)cc1 | -10.6 | -3.0 | 4.0
18 | C[C@H]1CN([C@@H](C)CO)C(=O)Cc2cc(NS(=O)(=O)c3cccs3)ccc2O[C@H]1CN(C)C(=O)Nc1cccc2ccccc12 | -2.6 | -2.2 | -1.0
31 | CO[C@H](CN(C)S(=O)(=O)c1ccc(F)cc1)[C@@H](C)CN([C@H](C)CO)S(=O)(=O)c1cccc(Cl)c1 | -0.2 | -16.4 | -5.5
52 | COc1ccc(S(=O)(=O)Nc2ccc3c(c2)C(=O)N([C@@H](C)CO)C[C@H](C)[C@@H](CN(C)S(=O)(=O)c2ccc(C)cc2)O3)cc1 | -1.6 | -3.3 | 3.0
